High-throughput results as filed in PubChem.
RecA splice inh: Mtb RecA intein splicing inhibition; cell-free RecA intein splicing, fluorescence; AID 2221; inhibition, %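 (about 9 µM by stock and volumes)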; P9WHJ3; 290,000 compounds, 0.75% hits; in the data active means inhibition above about 30%; inconclusive means no clear call, values can overlap the other calls;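 further: 0% = vehicle wells and 100% = reference inhibitor control wells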
Target sequence (P9WHJ3 whole entry, looked up, canonical isoform): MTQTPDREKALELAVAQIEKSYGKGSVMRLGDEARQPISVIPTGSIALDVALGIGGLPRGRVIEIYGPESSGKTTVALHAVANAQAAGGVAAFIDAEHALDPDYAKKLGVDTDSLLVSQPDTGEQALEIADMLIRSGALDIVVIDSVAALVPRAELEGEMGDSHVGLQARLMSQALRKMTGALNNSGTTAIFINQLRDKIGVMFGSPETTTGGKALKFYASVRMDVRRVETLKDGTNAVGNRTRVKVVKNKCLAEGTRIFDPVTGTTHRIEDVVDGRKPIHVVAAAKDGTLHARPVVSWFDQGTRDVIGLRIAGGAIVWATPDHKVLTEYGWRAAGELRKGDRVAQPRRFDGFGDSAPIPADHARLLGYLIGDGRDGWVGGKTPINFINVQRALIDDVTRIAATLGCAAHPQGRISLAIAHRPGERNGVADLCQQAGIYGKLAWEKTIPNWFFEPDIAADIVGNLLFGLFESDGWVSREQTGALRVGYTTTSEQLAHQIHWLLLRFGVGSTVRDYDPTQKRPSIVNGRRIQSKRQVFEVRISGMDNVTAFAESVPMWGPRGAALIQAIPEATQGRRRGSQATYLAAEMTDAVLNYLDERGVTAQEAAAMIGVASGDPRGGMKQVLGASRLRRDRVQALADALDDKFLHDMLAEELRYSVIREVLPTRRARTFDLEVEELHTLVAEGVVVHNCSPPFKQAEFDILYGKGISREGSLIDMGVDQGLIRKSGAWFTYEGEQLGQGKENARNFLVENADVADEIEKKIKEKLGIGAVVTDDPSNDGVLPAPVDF
YopH inh: inhibitors of Yersinia enterocolitica YopH tyrosine phosphatase | fluorescence Ex485/Em525 | inhibition, %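 (about 10 µM by stock and volumes)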 | 140,000 compounds, 0.16% hits;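 active means inhibition of 50% or more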;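 further: controls were vehicle for no effect and minimum signal wells for full effect; inactives centre near -20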
Arbovirus inh: antivirals against arbovirus infection | arbovirus infection cell-based antiviral screen | inhibition, % at 10 µM | 200,000 compounds, 0.37% hits | AID 1251;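 active means inhibition from about 30%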;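 further: bluetongue infection of BSR cells; cell survival read as ATP light after 72 h; 0% = infected wells without compound and 100% = uninfected wells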
Mtb betalactam: beta-lactam sensitization of Mtb H37Rv. M. tuberculosis H37Rv growth with meropenem, percent inhibition; hits of this screen are not shown here. inhibition, % at 25 µM. 330,000 compounds, 0.27% hits. AID 434955;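 active means about 74% or more and at least 40 points above the plate without the antibiotic, then above 30% in a dose series; inconclusive means first-round hits that could not be retested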;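 further: growth measured after seven days incubation then overnight dye step; 0% = bacteria only wells and 100% = bacteria with antibiotic; twin plates without the antibiotic show which effects depend on it; some results filed as inactive read as strong as hits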
Mtb growth: M. tuberculosis H37Rv growth inhibitors, H37Rv strain (AID 1626) | M. tuberculosis H37Rv growth inhibition; higher % means a stronger effect | inhibition, % at 10 µM, or IC50 in µM where a hit was titrated | 220,000 compounds, 0.95% hits;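 active means confirmed in a dose series; inconclusive means inhibition above 80% but not taken into the dose series; inactive means below 80% or under 30% at every dose of the series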;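 further: bacteria incubated seven days before Alamar blue readout; 0% = bacteria only wells and 100% = bacteria with antibiotic wells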
Arbovirus inh repeat: further read-out of Arbovirus inh, marked with its call; inhibition, %; measured here: 10K subset replicate screen; many hits read low in the repeat;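 first of two repeat runs on a subset; 0% = infected and 100% = uninfected wells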
Starred values were filed as active, the others as inactive; ? = inconclusive; . = not tested or not shown.

SMILES	RecA splice inh	YopH inh	Arbovirus inh	Mtb betalactam	Mtb growth	others
N#C/C(=C\c1ccc[nH]1)C(=O)NC1CC1	-0.6	-13	-7	12	-4%
O=S(=O)(Cc1ccccc1)Oc1ccccc1	-0.3	.	.	-2	.
COc1ccc(CNC(=O)c2cc3c(s2)CN(Cc2ccccc2)C3)cc1	-0.9	.	6	14	7%
COc1cccc(N2[C@@H](CC(C)=O)c3ccccc3S2(=O)=O)c1	0.3	.	.	-7	-8%
Cc1onc(-c2ccccc2)c1C(=O)Nc1sc2c(c1C(N)=O)CCC2	-2.6	-15	-5	1	0%
O=C(CSc1nc2ccccc2c(=O)n1Cc1ccc(C(=O)NC2CC2)cc1)NCc1ccco1	-1.3	-32	7	-4	-1%
O=C(O)CSc1cc(NS(=O)(=O)c2ccc(Cl)cc2)c2ccccc2c1O	96*	.	.	15	.
O=C(NCCCO)/C(=C\C=C\c1ccccc1)NC(=O)c1ccccc1Cl	2.3	-47	-1	5	10%
CSCCC(NC(=O)c1ccccc1Cl)C(=O)N1CCN(c2ccccn2)CC1 (centres undefined)	0.7	.	.	-5	.
CC(=O)Nc1ccc(-c2csc(N/N=C(/C)c3ccccc3)n2)cc1	7.9	.	.	19	4%
COc1ccc(CCNC(=O)C2CCCN2C(=O)Nc2cccc(C(C)=O)c2)cc1OC (centres undefined)	.	-38	1	-10	-6%
CN(C)CCCNc1ccc(-c2cc(Nc3cccc(Cl)c3)ncn2)cn1	1.4	.	.	-6	-3%
CN(C)CCCN(C(=O)COc1ccc(Cl)cc1)c1nc2ccc(F)cc2s1	-1.5	.	19	-5	2%
COc1ccc(C(C)(C)NC(=O)C2CCC(=O)N(CCCN3CCCC3=O)C2)cc1 (centres undefined)	0.7	.	.	-2	.
CCc1nnc(NC(=O)C(C)N2C(=O)C3C4C=CC(C4)C3C2=O)s1 (centres undefined)	.	-40	1	66	-1%
COc1ccc(CC(=O)n2[nH]c(=O)cc(C)c2=O)cc1OC	0.6	.	.	3	-2%
CS(=O)(=O)N(Cc1ccc(Cl)cc1)c1ccc(C(=O)NCc2ccccn2)cc1	0.4	.	.	-9	-8%
CCCCCn1c(CN2CCN(CCO)CC2)nc2c1c(=O)n(C)c(=O)n2C	-0.4	-26	-8	8	1%
CCCc1[nH][nH]c(=O)c1C(c1ccccc1)C(C#N)C#N (centres undefined)	62*	-30	-5	-3	-7%
O=C(NC1CC(=O)N(c2ccc3c(c2)OCCO3)C1)N1CCC(O)CC1 (centres undefined)	-2.4	.	.	-2	.
O=C(NC1CC1)C1=C[C@@H](c2c[nH]c3ccccc23)C[C@@H](OCc2ccc(CO)cc2)O1	8.1	.	.	4	1%
COC(C[C@H](O)CC(=O)[C@@H](C)OCc1ccccc1)OC	-1.3	.	.	8	-3%
CCOC(=O)CSc1n[nH]c(NC(=O)CC)n1	3.0	.	-1	-4	1%
COc1ccc(C(=O)C2(C)N(O)C(C)C(c3cccs3)=[N+]2[O-])cc1 (centres undefined)	-0.6	-36	-3	2	-10%
CCC(Oc1ccccc1)C(=O)N(C)CC(=O)N(CC(C)C)c1c(N)n(CC(C)C)c(=O)[nH]c1=O (centres undefined)	-5.6	.	.	-1	.
Cc1nc2c3ccccc3nc(NNC(=O)CCC(=O)NCCN3CCN(c4ccccc4)CC3)n2n1	-10	.	.	-3	.
COc1ccccc1NC(=S)N1CCC(NC(=O)C23CC4CC(CC(C4)C2)C3)CC1	0.6	.	-3	0	-2%
Cc1ccc(NC(=O)CN(C)C(=O)/C=C/c2cccs2)cc1	2.3	-22	7	-8	6%
O=C(/C=C/c1ccccc1)N/C(=C/c1ccccc1)C(=O)Nc1ccccc1O	7.4	-40	-14	-2	8%
O=C(NCCc1ccc(C(F)(F)F)cc1)C1CCC(=O)N(CCCc2ccccc2)C1 (centres undefined)	0.8	.	.	2	.
Cc1ccc(NP(=O)(Oc2ccccc2F)Oc2ccccc2F)cc1C	13	-23	-31	11	15%
O=C1CCN(c2ncccc2[N+](=O)[O-])CC1	-1.8	.	2	-5	.
Cc1cccc(NC(=O)CCS(=O)(=O)c2ccccc2)c1	-1.3	.	.	-2	.
Cc1cccc(N2CCN(C(=O)CCC(=O)N3CC(C)Oc4ccc(C)cc43)CC2C)c1 (centres undefined)	4.9	.	.	-8	.
CCOC(=O)c1cc(C(=O)OCC)c(=O)[nH]c1C	-0.2	-42	3	-5	-5%
N#Cc1ccc(Cn2ccnc2C(=O)Nc2ccccc2)cc1	1.9	.	-3	9	5%
COCCn1c(=S)[nH]c2sc3c(c2c1=O)CCC(C)C3 (centres undefined)	-0.8	.	.	0	.
O=C(O)C1C2CCC(O2)C1C(=O)Nc1ccc(Br)cc1F (centres undefined)	-1.8	.	.	3	.
COC(=O)c1c(C)n(-c2ccccc2)c2ccc(O)cc12	2.0	-39	-12	.	-10%
CC(NCc1ccc(S(N)(=O)=O)cc1)C(=O)Nc1cccc(Cl)c1 (centres undefined)	2.8	.	.	-7	-6%
C/C(=N\NC(=O)Cc1cccn1C)c1ccc([N+](=O)[O-])cc1	-1.4	.	.	-3	-13%
S=C(NC12CC3CC(CC(C3)C1)C2)N1CCCC1	-0.7	-17	18	4	-5%
COc1ccc(CC(=O)NCC2CCCN(Cc3cc(OC)cc(OC)c3)C2)cc1 (centres undefined)	2.7	.	.	-1	.
CCC(CC)C(=O)Nc1ccc(C)cc1O	-2.4	.	3	-1	-4%
CC(C)OC(=O)c1cc(C(=O)c2cc(Cl)ccc2O)coc1=N	-12	.	10	5	28µM*
COc1ccc(OC)c(N(CC(=O)NCCSCc2ccc(C)cc2)S(C)(=O)=O)c1	-1.6	.	.	-1	.
CCOc1ccc(C2=CSC3=NCCN23)cc1[N+](=O)[O-]	-1.6	.	.	-4	.
COc1ccc(NC(=O)c2ccc3ccccc3c2)cc1NS(=O)(=O)c1ccc(F)cc1	12	-19	11	1	6%
CCc1ccc(C2=NN(CCC(=O)NC(C)CCc3ccccc3)C(=O)CC2)cc1 (centres undefined)	1.9	.	-6	-10	-1%
COc1cc(C)ccc1OCCOc1ccccc1Cl	0.8	-39	-6	62	2%
COc1ccc(CCN(C(=O)c2cccc(F)c2)C2CC(=O)N(c3ccccc3)C2=O)cc1 (centres undefined)	2.4	-13	-4	4	-2%
COC(=O)CC1C(=O)NCCN1C(=S)NC(=O)CCc1ccccc1 (centres undefined)	-5.3	.	-6	2	6%
O=C(Nc1cc(=O)[nH]c2ncnn12)c1ccccc1	-1.2	-24	0	1	-28%
Cc1ccc(C2c3c(oc4ccccc4c3=O)C(=O)N2c2nncs2)cc1 (centres undefined)	-3.4	.	.	-1	-8%
COc1ccccc1N1CCN(Cc2ccc(O)c3ncccc23)CC1	0.2	-18	-39	72	8%
Cc1nn(-c2ccccc2)c(C)c1Cc1ccc(O)cc1	3.0	.	.	-7	.
COc1ccccc1CC(=O)N1CCN(CCc2ccccc2)CC1	-0.9	.	.	-4	.
CC(C)CN(C(=O)COC(=O)c1ccc(Cl)c(N)c1)c1c(N)n(Cc2ccccc2)c(=O)[nH]c1=O	-2.4	.	.	-21	.
Cc1ccnc(NCc2cc(C)ccc2O)c1	-2.2	.	.	-2	.
O=C1Cc2ccccc2C(c2ccc(Cl)cc2Cl)N1 (centres undefined)	-12	.	.	-12	2%

Other compounds follow:
SMILES	RecA splice inh	YopH inh	Arbovirus inh	Mtb betalactam	Mtb growth	others
FC(F)(F)c1cccc(NC(=S)NCCc2ccccn2)c1	-0.4	-30	24	3	-2%
C=CCc1cccc2cc(C(=O)NNC(=O)CC#N)c(=O)oc12	1.8	.	.	-7	4%
CCOC(=O)C1=C(C)NC(=O)NC1c1c(OC)ccc2ccccc12 (centres undefined)	-0.1	.	.	-5	.
Cc1ccc(/C=N/NS(=O)(=O)c2ccccc2)o1	-4.1	-7	4	-2	14%
Cc1csc(Sc2nc3c(c(=O)[nH]c(=O)n3C)n2CCCc2ccccc2)n1	-1.6	1	6	2	-3%
CN(C)c1ccc(N/C(N)=N/c2nc(C(F)(F)F)cc(C(F)(F)F)n2)cc1	2.5	.	3	3	1%
Cc1ccc(S(=O)(=O)NNC2=NS(=O)(=O)c3ccccc32)c(C)c1	-1.6	.	18	4	-8%
c1nc2n(n1)C1=C(CCCC1)C1(CCCCC1)N2	-3.2	.	8	96	18µM*
NS(=O)(=O)c1ccc(CCNC(=O)c2ccc(NC3=NC4CS(=O)(=O)CC4S3)cc2)cc1 (centres undefined)	2.0	.	.	-4	.
CC(=O)N1CCN(Cc2nc3ccc(Cl)cc3n2CCO)CC1	-2.4	.	.	2	.
CCOCC(=O)Nc1ccc(S(=O)(=O)NCCc2ccccc2)cc1	3.3	4	1	19	6%
O=C(c1ccc(F)cc1)N1CCN2C(=O)c3ccccc3C12c1ccccc1 (centres undefined)	1.4	.	.	2	0%
O=C(CCCc1nc2ccccc2s1)NCc1ccccc1F	0.6	-30	3	11	0%
COc1cc(C)c(Br)cc1S(=O)(=O)N1CCOCC1	0.8	10	-4	-11	-1%
CC(=O)N1c2ccc(S(=O)(=O)N(C)C3CCCCC3)cc2CC1C (centres undefined)	7.0	.	.	?	.
COc1ccc(N2CCN(C(=O)C(=O)c3cn(CC(=O)N4CCOCC4)c4ccccc34)CC2)cc1	-2.4	.	.	9	.
Nn1c(SCC(=O)Nc2ccccc2)nnc1C1CCCCC1	-1.0	.	.	-3	.
Cc1noc(C)c1CSc1nc2sc3c(c2c(=O)n1C)CCCC3	2.9	-14	-15	53	4%
COCCCNc1ncnc2c1cnn2-c1ccc(C)cc1C	-0.1	-3	-1	12	3%
CCNc1nc(NC(C)C)nc(NS(=O)(=O)c2ccc(N)cc2)n1	-0.8	-27	0	-15	-1%
CCSc1nnc(NC(=O)c2cccs2)s1	0.3	-33	1	-3	-9%
O=C(c1coc2ccc(O)c(CN3CCOCC3)c12)C1CC1	-1.2	-36	22	-4	4%
O=C(COC(=O)C1CC(=O)N(C2CCCCC2)C1)c1ccc(F)cc1 (centres undefined)	-0.2	-9	5	-1	3%	Arbovirus inh repeat=1
Cc1cc(OCC(O)CN2CCCC2)cc(C)c1Cl (centres undefined)	1.5	.	.	-15	.
CC(C)[C@H](NC(=O)NCCC1=CCCCC1)C(=O)O	-0.6	.	.	-7	-4%
COC(CNC(=O)c1cccnc1)OC	-4.0	.	-4	-5	-2%
CNC(=O)c1cc2cc(Cl)cc(OC)c2oc1=O	0.8	44	.	12	-3%
CCOC(=O)Cc1csc(NC(=O)c2ccc(OC)c(OC)c2)n1	-0.3	-30	6	-1	3%
O=c1c(/C=N/O)c(Nc2ccccc2)nc2ccccn12	1.8	-37	12	-4	7%	Arbovirus inh repeat=-2
Cc1ccc(S(=O)(=O)N(CC(=O)NCCC2=CCCCC2)Cc2ccccc2F)cc1	.	7	-25	-12	1%

Of the compounds above, these have a nitro group on carbon:
SMILES	RecA splice inh	YopH inh	Arbovirus inh	Mtb betalactam	Mtb growth	others
O=C1CCN(c2ncccc2[N+](=O)[O-])CC1	-1.8	.	2	-5	.
C/C(=N\NC(=O)Cc1cccn1C)c1ccc([N+](=O)[O-])cc1	-1.4	.	.	-3	-13%
CCOc1ccc(C2=CSC3=NCCN23)cc1[N+](=O)[O-]	-1.6	.	.	-4	.

(list continues)
SMILES	RecA splice inh	YopH inh	Arbovirus inh	Mtb betalactam	Mtb growth	others
O=S(=O)(Nc1cccc(Cl)c1)c1ccc2oc(=S)[nH]c2c1	1.3	.	6	0	-2%
C[C@@H](C(=O)NCc1ccc(S(C)(=O)=O)cc1)[C@H]1C[C@]1(C)[C@H](NC(=O)OCc1ccccc1)c1ccccc1	.	-17	-9	-3	-7%
Cc1ccc2nc(SC(C)C(=O)N3CCOCC3)[nH]c2c1 (centres undefined)	-1.8	.	3	-7	1%
COc1cc2[nH]c(=S)n(CCN3CCCCC3C)c(=O)c2cc1OC (centres undefined)	-0.6	-23	18	54	4%
O=C(NCc1ccc(F)cc1)c1cnc2n(c1=O)CCS2	1.7	-46	5	-3	2%	Arbovirus inh repeat=-2
O=C(NCc1ccccc1)C12CC3CC(CC(Br)(C3)C1)C2	0.8	.	.	-3	.

Arranged by SMILES length (lowest first): some entries from above.
SMILES	RecA splice inh	YopH inh	Arbovirus inh	Mtb betalactam	Mtb growth	others
Cc1ccc2nc(SC(C)C(=O)N3CCOCC3)[nH]c2c1 (centres undefined)	-1.8	.	3	-7	1%
O=C(NCc1ccccc1)C12CC3CC(CC(Br)(C3)C1)C2	0.8	.	.	-3	.
COc1cc2[nH]c(=S)n(CCN3CCCCC3C)c(=O)c2cc1OC (centres undefined)	-0.6	-23	18	54	4%
C[C@@H](C(=O)NCc1ccc(S(C)(=O)=O)cc1)[C@H]1C[C@]1(C)[C@H](NC(=O)OCc1ccccc1)c1ccccc1	.	-17	-9	-3	-7%

Not all compounds are listed. The share of hits here may be higher or lower than overall.
